Bioassay records from PubChem BioAssay.
GIRK2 activ: opens human GIRK2 potassium channels. 63,000 tested, 0.05% active. HEK293-GIRK2 thallium flux, Thallos fluorescence. calls only for hits at 25 µM;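 active = among the strongest 0.2% of first-round signals and kept after retests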;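 note: first round at about 10 µM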
Target sequence (P48051 whole entry, looked up): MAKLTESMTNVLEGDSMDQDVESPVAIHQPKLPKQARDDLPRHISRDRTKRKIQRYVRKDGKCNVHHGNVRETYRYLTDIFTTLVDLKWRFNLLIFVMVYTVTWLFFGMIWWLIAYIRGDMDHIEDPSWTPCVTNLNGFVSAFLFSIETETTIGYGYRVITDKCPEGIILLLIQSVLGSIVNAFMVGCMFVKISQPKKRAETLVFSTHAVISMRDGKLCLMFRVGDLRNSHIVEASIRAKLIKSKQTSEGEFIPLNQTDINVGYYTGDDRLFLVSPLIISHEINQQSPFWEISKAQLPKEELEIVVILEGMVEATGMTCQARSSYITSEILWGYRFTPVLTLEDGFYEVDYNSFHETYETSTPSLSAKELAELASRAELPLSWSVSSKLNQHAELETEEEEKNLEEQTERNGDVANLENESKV
Calls only. This is a subset; count on the stated rates, not on these rows.

Screening O=C(c1cccs1)N1CCN(CC(O)c2ccco2)CC1 (centres undefined) returned GIRK2 activ inactive.
Screening O=c1c2cccnc2nc(SCc2cc(=O)n3cc(Cl)ccc3n2)n1CC1CCCO1 (centres undefined) returned GIRK2 activ inactive.
Screening Cc1cc(S(=O)(=O)N2CCC(Oc3ncccc3Cl)CC2)c(Cl)cc1Cl returned GIRK2 activ inactive.
Screening COC(=O)C1=C(C)N(Cc2ccccc2)C(=O)NC1c1ccc(OCc2ccccc2)cc1 (centres undefined) returned GIRK2 activ inactive.
`CCNC(=O)c1cn(-c2ccc(SCC(=O)Nc3ccc(C)cc3Cl)nn2)cn1` gave GIRK2 activ inactive.
Screening Cc1ccc(C)c(C(=O)NCC(c2cccn2C)N2CCCCCC2)c1 (centres undefined) returned GIRK2 activ inactive.
`COC(=O)c1ccsc1NC(=O)c1nnn(-c2ccccc2)n1` gave GIRK2 activ inactive.
`Cc1cc(C(=O)Nc2nc(C(=O)Nc3ccc4c(c3)Cc3ccccc3-4)co2)no1` gave GIRK2 activ inactive.
For CCOc1ccc(-c2cc(=O)n(CC(=O)N3CCN(c4ccccc4F)CC3)cn2)cc1 the results were GIRK2 activ inactive.
`COc1cccc(NC(=O)Nc2ccc3c(c2)N(S(=O)(=O)c2cccs2)CCC3)c1` gave GIRK2 activ inactive.
For C/C=C/Cn1c(=O)c2c(nc3n2CCN3Cc2ccco2)n(C)c1=O the results were GIRK2 activ inactive.
Screening CCCc1ccc(S(=O)(=O)Nc2ccc3c(c2)N(S(=O)(=O)CC)CCC3)cc1 returned GIRK2 activ inactive.
`O=C(Nc1ccc([N+](=O)[O-])cc1O)Nc1ccccc1Br` gave GIRK2 activ inactive.
`O=C(Nc1nccs1)C1CCN(C(=O)Nc2cccc(C(F)(F)F)c2)CC1` gave GIRK2 activ inactive.
For O=C(NCCNc1ccc(Nc2ccncc2)nn1)Nc1ccc(Cl)cc1 the results were GIRK2 activ inactive.
For COc1ccc(C(=O)NC2=N/C(=C(/C#N)C(=O)N3CCCCC3)c3ccccc32)cc1 the results were GIRK2 activ inactive.
`COc1ccc(-c2coc3cc(OC(=O)c4ccccc4)ccc3c2=O)cc1OC` gave GIRK2 activ inactive.
Screening Cc1ncn(CC(=O)Nc2ccc(Oc3ccccc3)cc2)c(=O)c1C returned GIRK2 activ inactive.
For COCCn1c(SCc2nc(-c3ccc4c(c3)OCO4)no2)nc2ccsc2c1=O the results were GIRK2 activ inactive.
O=C(CCCCn1c(=O)[nH]c2ccccc2c1=O)NCc1ccc(F)cc1 was read as GIRK2 activ inactive.
`COc1ccc(S(=O)(=O)NCC(c2ccsc2)N2CCOCC2)cc1F` (centres undefined) gave GIRK2 activ inactive.
For Cc1ccc(S(=O)(=O)c2nnn3c2nc(N2CCN(c4ccccn4)CC2)c2ccccc23)cc1 the results were GIRK2 activ inactive.
Screening O=c1c2nnn(Cc3ccccc3)c2ncn1Cc1nc(-c2ccc(F)c(Br)c2)no1 returned GIRK2 activ inactive.
`COC(=O)c1ccc(C(=O)N(CC2CCCO2)c2nc3c(SC)cccc3s2)cc1` (centres undefined) gave GIRK2 activ inactive.
For COc1cc(NC(=O)Cn2c(=O)nc(-c3ccccc3)c3cc(Cl)ccc32)cc(OC)c1 the results were GIRK2 activ inactive.
`Cc1ccc(C)c2sc(N3CC(OC(=O)C4CC4)C3)nc12` gave GIRK2 activ inactive.
For CCc1ccc(NC(=O)Cn2cc(S(=O)(=O)c3ccccc3)c(=O)c3cc(F)ccc32)cc1 the results were GIRK2 activ inactive.
`O=S(=O)(Nc1ccc(Nc2cc(-n3cccn3)ncn2)cc1)c1ccc(C(F)(F)F)cc1` gave GIRK2 activ inactive.
CCN(CC)C(=O)/C(C#N)=C/c1cc(O)c(O)c([N+](=O)[O-])c1 was read as GIRK2 activ inactive.
Screening O=C(N1CCC(Cn2ccnc2-c2ccccc2)CC1)C1(c2cccs2)CCCC1 returned GIRK2 activ inactive.
For COc1cc2[nH]c3c(=O)n(CC(=O)N4CCN(c5ccc(C(C)=O)cc5)CC4)cnc3c2cc1OC the results were GIRK2 activ inactive.
Screening CC1CC(C)CN(C(=O)c2ccc(CNS(=O)(=O)c3cccc(C(F)(F)F)c3)cc2)C1 (centres undefined) returned GIRK2 activ inactive.
Screening O=c1c2ccccc2oc2nc(-c3cccs3)n(Cc3ccccc3)c(=O)c12 returned GIRK2 activ inactive.
For COc1ccc2c(c1)c(CC(=O)Nc1cccnc1Cl)c(C)n2C(=O)c1ccc(Cl)cc1 the results were GIRK2 activ inactive.
COc1ccc(CCC(=O)NCC2CCS(=O)(=O)C2)cc1 (centres undefined) was read as GIRK2 activ inactive.
CN(C)S(=O)(=O)c1ccc(-c2nc(C#N)c(N3CCOCC3)o2)cc1 was read as GIRK2 activ inactive.
For COc1nn(C)cc1C(=O)Nc1nnc(SCC(=O)Nc2ccccc2F)s1 the results were GIRK2 activ inactive.
For COc1ccc(-c2ccc(N3CCCC(C(=O)Nc4ccc(C(N)=O)cc4)C3)nn2)cc1 (centres undefined) the results were GIRK2 activ inactive.
`Cc1ccc(S(=O)(=O)N2CCC(Oc3ccccn3)CC2)s1` gave GIRK2 activ inactive.
For O=C(Cn1nc2c(c1NC(=O)c1c[nH]c3ccccc13)CSC2)NCc1ccco1 the results were GIRK2 activ inactive.
Cc1cc(C)n(C(=O)c2ccc(Cl)c(S(=O)(=O)N3CCCCC3)c2)n1 was read as GIRK2 activ inactive.
CCOC(=O)c1cnn2ccc(NC(=O)c3cc(C4CC4)on3)cc12 was read as GIRK2 activ inactive.
Screening O=C(Cn1nc(-c2ccco2)c2sc(N3CCCC3)nc2c1=O)NCc1ccco1 returned GIRK2 activ inactive.
Screening Cc1cc(CCNC(=O)c2cc(-c3ccccc3)nn2C)on1 returned GIRK2 activ inactive.
Screening Cc1ccccc1-n1c(-c2cccc([N+](=O)[O-])c2)cnc1SCC(N)=O returned GIRK2 activ inactive.
Cc1ccc(COc2cccc(N3CCn4c3nc3c4c(=O)n(C)c(=O)n3C)c2)cc1 was read as GIRK2 activ inactive.
For COCCOCC1CCN(C(=O)COc2cccc(OC)c2)CC1 the results were GIRK2 activ inactive.
CCOC(=O)C(=O)NCCN1CCN(S(C)(=O)=O)CC1 was read as GIRK2 activ inactive.
For COc1ccc(C)cc1N1CCn2c1nc1c2c(=O)n(Cc2ccc(C)cc2)c(=O)n1C the results were GIRK2 activ inactive.
`COc1ccc(C2CCN(C(=O)c3ccc(OC)cc3OC)C2)cc1` (centres undefined) gave GIRK2 activ inactive.
For COc1ccc(Oc2c(C)oc3cc(O)ccc3c2=O)cc1 the results were GIRK2 activ inactive.
O=C(CCCS(=O)(=O)c1ccccc1)Nc1nnc(-c2ccc3c(c2)OCCO3)o1 was read as GIRK2 activ inactive.
Screening CCN1C(=O)C2C(c3ccc([N+](=O)[O-])cc3)NN(Cc3ccccc3)C2C1=O (centres undefined) returned GIRK2 activ inactive.
For COCCNC(=O)c1coc(NC(=O)c2cc(C)on2)n1 the results were GIRK2 activ inactive.
Screening O=C(Cc1ccc(F)cc1)N1CCCC(c2nnc(-c3cccs3)o2)C1 (centres undefined) returned GIRK2 activ inactive.
Screening CCOC(=O)Nc1cc(C)nn1-c1nc(-c2ccc(OCC)cc2)cs1 returned GIRK2 activ inactive.
Screening Cn1nc(C(=O)NCCOc2cccc3cccnc23)ccc1=O returned GIRK2 activ inactive.
`COc1ccc(CCC(=O)Nc2ccc(SCC(=O)N3CCCC3)nn2)cc1` gave GIRK2 activ inactive.
C=CC(C)(C)c1[nH]cnc1/C=C1\NC(=O)C(C(C)C)NC1=O (centres undefined) was read as GIRK2 activ inactive.
For c1ccc2sc(N3CCN(C4CCCCC4)CC3)nc2c1 the results were GIRK2 activ inactive.
Screening COC(=O)c1ccnc(C2=C(O)CCCC2)c1 returned GIRK2 activ inactive.
Screening COc1ccc(OC)c(CNC(=O)CCn2cnc3c([nH]c4cc(OC)c(OC)cc43)c2=O)c1 returned GIRK2 activ inactive.
O=C(Cc1c(F)cccc1Cl)NCCN1CCN(C(=O)c2cccs2)CC1 was read as GIRK2 activ inactive.
For Cc1nc(-n2cccc2)sc1C(=O)NCC1CCC(c2nc3ccccc3[nH]2)CC1 (centres undefined) the results were GIRK2 activ inactive.
O=C(Nc1ccc(OC(F)(F)F)cc1)c1ccc2nc[nH]c2c1 was read as GIRK2 activ inactive.
COC(=O)c1sc2cccc(F)c2c1S(=O)(=O)Nc1cc(C)ccc1OC was read as GIRK2 activ inactive.
`CCOc1ccc(OCC)c(S(=O)(=O)Nc2cnc(Oc3ccccc3)nc2)c1` gave GIRK2 activ inactive.
Screening COc1ccc(NC(=O)Nc2nc(CCC(=O)NCCC3=CCCCC3)cs2)cc1 returned GIRK2 activ inactive.
O=C(NNC(=O)c1cccn(Cc2cccc(Cl)c2)c1=O)Nc1cccs1 was read as GIRK2 activ inactive.
`O=C1NC(=O)C2C1C(c1cccs1)NN2Cc1ccccc1` (centres undefined) gave GIRK2 activ inactive.
For COc1ccc(-c2nc3oc4ccccc4c(=O)c3c(=O)n2-c2ccc(C)cc2)cc1 the results were GIRK2 activ inactive.
For COc1ccc(N/C=C(\C#N)c2nc(-c3cc4cc(Cl)ccc4oc3=O)cs2)cc1OC the results were GIRK2 activ inactive.
`COc1ccc(-c2noc(C3CCN(S(=O)(=O)c4ccc(C)c(C)c4)CC3)n2)c(OC)c1` gave GIRK2 activ inactive.
Cc1ccc(-n2ncc3c2ncn2c(C4CCCO4)nnc32)cc1 (centres undefined) was read as GIRK2 activ inactive.
For Cn1nc(C2CCN(CC(=O)NCCc3ccccc3)CC2)n(-c2ccccc2)c1=O the results were GIRK2 activ inactive.
CCC(C)NC(=O)c1c(N)n(/N=C\c2ccncc2)c2nc3ccccc3nc12 (centres undefined) was read as GIRK2 activ inactive.
`Cc1cc(OCC(=O)NCc2cccs2)nc(-c2ccc(F)cc2)n1` gave GIRK2 activ inactive.
For CCCCN(C)C(=O)CSc1ncc(S(=O)(=O)c2cccs2)c(N)n1 the results were GIRK2 activ inactive.
Screening O=S(=O)(c1cccs1)N1CCCC(c2nnc(-c3ccc4c(c3)OCO4)o2)C1 (centres undefined) returned GIRK2 activ inactive.
`COc1cccc(CN2N=NC3C(=O)N(c4ccc(OC)c(Cl)c4)C(=O)C32)c1` (centres undefined) gave GIRK2 activ inactive.

At a glance, part of the list above:
Screening COC(=O)c1ccnc(C2=C(O)CCCC2)c1 returned GIRK2 activ inactive.
Screening COc1ccc(OC)c(CNC(=O)CCn2cnc3c([nH]c4cc(OC)c(OC)cc43)c2=O)c1 returned GIRK2 activ inactive.
O=C(Cc1c(F)cccc1Cl)NCCN1CCN(C(=O)c2cccs2)CC1 was read as GIRK2 activ inactive.
For Cc1nc(-n2cccc2)sc1C(=O)NCC1CCC(c2nc3ccccc3[nH]2)CC1 (centres undefined) the results were GIRK2 activ inactive.
O=C(Nc1ccc(OC(F)(F)F)cc1)c1ccc2nc[nH]c2c1 was read as GIRK2 activ inactive.
COC(=O)c1sc2cccc(F)c2c1S(=O)(=O)Nc1cc(C)ccc1OC was read as GIRK2 activ inactive.
`CCOc1ccc(OCC)c(S(=O)(=O)Nc2cnc(Oc3ccccc3)nc2)c1` gave GIRK2 activ inactive.
Screening COc1ccc(NC(=O)Nc2nc(CCC(=O)NCCC3=CCCCC3)cs2)cc1 returned GIRK2 activ inactive.
O=C(NNC(=O)c1cccn(Cc2cccc(Cl)c2)c1=O)Nc1cccs1 was read as GIRK2 activ inactive.
`O=C1NC(=O)C2C1C(c1cccs1)NN2Cc1ccccc1` (centres undefined) gave GIRK2 activ inactive.
For COc1ccc(-c2nc3oc4ccccc4c(=O)c3c(=O)n2-c2ccc(C)cc2)cc1 the results were GIRK2 activ inactive.
For COc1ccc(N/C=C(\C#N)c2nc(-c3cc4cc(Cl)ccc4oc3=O)cs2)cc1OC the results were GIRK2 activ inactive.
`COc1ccc(-c2noc(C3CCN(S(=O)(=O)c4ccc(C)c(C)c4)CC3)n2)c(OC)c1` gave GIRK2 activ inactive.
Cc1ccc(-n2ncc3c2ncn2c(C4CCCO4)nnc32)cc1 (centres undefined) was read as GIRK2 activ inactive.
For Cn1nc(C2CCN(CC(=O)NCCc3ccccc3)CC2)n(-c2ccccc2)c1=O the results were GIRK2 activ inactive.
CCC(C)NC(=O)c1c(N)n(/N=C\c2ccncc2)c2nc3ccccc3nc12 (centres undefined) was read as GIRK2 activ inactive.
`Cc1cc(OCC(=O)NCc2cccs2)nc(-c2ccc(F)cc2)n1` gave GIRK2 activ inactive.

Following part
For CS(=O)(=O)N1CCC(CNC(=O)C2CC=CCC2)CC1 (centres undefined) the results were GIRK2 activ inactive.
For O=C(Nc1nc2ccccc2s1)C(c1ccccc1)n1cccc1 (centres undefined) the results were GIRK2 activ inactive.
Screening O=C(Nc1ccc2c(c1)OCO2)Nc1ccc(Cl)c(N2CCCS2(=O)=O)c1 returned GIRK2 activ inactive.
COc1ccc(Cl)cc1NC(=O)Cn1cnc2c(-c3ccccc3)csc2c1=O was read as GIRK2 activ inactive.
`Cc1cccc(NC(=O)Cn2nc(C3CCN(S(C)(=O)=O)CC3)n(C)c2=O)c1C` gave GIRK2 activ inactive.
For Cc1cc2nn(CC(=O)NCc3ccco3)c(=O)n2c(Nc2ccc(C)c(F)c2)n1 the results were GIRK2 activ inactive.
Cc1cc(N2C=C(C#N)S(=O)(=O)c3ccccc32)ccc1Br was read as GIRK2 activ inactive.
`CN(C)S(=O)(=O)N1CCN(CC(=O)Nc2cc(Cl)cc(Cl)c2)CC1` gave GIRK2 activ inactive.
For CCCCn1c(C(=O)NCC(C)O)cc2c(=O)n(C)c(=O)n(C)c21 (centres undefined) the results were GIRK2 activ inactive.
`Cn1c2ccccc2c(=O)c2c(=O)n(-c3ccccc3)c(-c3cccs3)nc21` gave GIRK2 activ inactive.
For COc1ccc(Cl)cc1NC(=O)C(C)Cn1nc(C)c(C)c1C (centres undefined) the results were GIRK2 activ inactive.
Screening O=C(Nc1ncc(Cc2ccccc2)s1)c1cc2c(cc1Br)OCCO2 returned GIRK2 activ inactive.
O=C(/C=C/c1ccccc1)NCC1CCN(C(=O)c2cccnc2)CC1 was read as GIRK2 activ inactive.
`O=C(NCC(O)(c1ccccc1)C1CC1)Nc1ccc2c(c1)OCO2` (centres undefined) gave GIRK2 activ inactive.
For CC(=O)c1cccc(NC(=O)CN(C)c2nc3c(F)cccc3s2)c1 the results were GIRK2 activ inactive.
Screening O=C(c1nc2ccccc2s1)N1CCN(S(=O)(=O)C2CC2)CC1 returned GIRK2 activ inactive.
